Screening results as filed in PubChem.
Mtb betalactam: beta-lactam sensitization of Mtb H37Rv, H37Rv; M. tuberculosis H37Rv growth with meropenem, percent inhibition; hits of this screen are not shown here; AID 434955, 2010; 0.27% of 330,000 active; inhibition, % at 25 µM;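 active = about 74% or more and at least 40 points above the plate without the antibiotic, then above 30% in a dose series; inconclusive = first-round hits that could not be retested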;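 note: growth measured after seven days incubation then overnight dye step; 0% = bacteria only wells and 100% = bacteria with antibiotic; twin plates without the antibiotic show which effects depend on it; some results filed as inactive read as strong as hits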
Mtb H37Rv: M. tuberculosis H37Rv growth inhibitors, H37Rv strain (AID 1626); M. tuberculosis H37Rv growth inhibition; higher % means a stronger effect; inhibition, % at 10 µM; hits with a dose series show IC50 in µM; 0.95% of 220,000 active;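 active = confirmed in a dose series; inconclusive = inhibition above 80% but not taken into the dose series; inactive = below 80% or under 30% at every dose of the series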;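 note: bacteria incubated seven days before Alamar blue readout; 0% = bacteria only wells and 100% = bacteria with antibiotic wells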
RecA splice inh: Mtb RecA intein splicing inhibitors, primary screen, biochemical, fluorescence, HTS; AID 2221, 2009; 0.75% of 290,000 active; Protein RecA (Mycobacterium tuberculosis (strain ATCC 25618 / H37Rv)), P9WHJ3; inhibition, %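 (about 9 µM by stock and volumes)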; cell-free RecA intein splicing; in the data active = inhibition above about 30%; inconclusive = no clear call, values can overlap the other calls;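 note: 0% = vehicle wells and 100% = reference inhibitor control wells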
Target sequence (P9WHJ3 whole entry, looked up, canonical isoform): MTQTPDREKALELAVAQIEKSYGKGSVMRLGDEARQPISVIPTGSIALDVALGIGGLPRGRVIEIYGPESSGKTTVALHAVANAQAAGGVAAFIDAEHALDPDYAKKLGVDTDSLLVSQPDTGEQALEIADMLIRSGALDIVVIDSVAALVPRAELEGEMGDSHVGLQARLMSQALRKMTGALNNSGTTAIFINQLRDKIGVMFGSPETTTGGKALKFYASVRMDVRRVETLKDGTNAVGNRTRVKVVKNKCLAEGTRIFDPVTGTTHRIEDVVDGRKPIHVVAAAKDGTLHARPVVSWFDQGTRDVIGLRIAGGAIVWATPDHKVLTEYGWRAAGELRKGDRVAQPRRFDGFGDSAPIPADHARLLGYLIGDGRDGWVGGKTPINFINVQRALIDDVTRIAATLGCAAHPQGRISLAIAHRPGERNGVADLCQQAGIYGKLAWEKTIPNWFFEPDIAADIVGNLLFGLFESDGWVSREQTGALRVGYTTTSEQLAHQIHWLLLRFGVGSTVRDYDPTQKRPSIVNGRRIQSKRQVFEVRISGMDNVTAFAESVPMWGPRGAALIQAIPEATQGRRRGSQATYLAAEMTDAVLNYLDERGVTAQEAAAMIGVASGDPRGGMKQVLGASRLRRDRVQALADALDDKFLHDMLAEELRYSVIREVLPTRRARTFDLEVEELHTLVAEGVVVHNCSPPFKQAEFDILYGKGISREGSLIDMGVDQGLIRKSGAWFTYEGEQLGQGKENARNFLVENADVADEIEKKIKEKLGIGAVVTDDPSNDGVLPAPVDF
YopH PTP inh: YopH tyrosine phosphatase inhibitors, primary screen, biochemical, fluorescence Ex485/Em525; YopH tyrosine phosphatase [Yersinia enterocolitica]; 0.16% of 140,000 active; inhibition, %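 (about 10 µM by stock and volumes)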; AID 898, 2007;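 active = inhibition of 50% or more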;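 note: controls were vehicle for no effect and minimum signal wells for full effect; inactives centre near -20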
Arbovirus anti: antivirals against arbovirus infection, primary screen, cell-based, full library, 10K replicate subset | arbovirus infection cell-based antiviral screen | inhibition, % at 10 µM | 0.37% of 200,000 active | AID 1251, 2008;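 active = inhibition from about 30%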;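 note: bluetongue infection of BSR cells; cell survival read as ATP light after 72 h; 0% = infected wells without compound and 100% = uninfected wells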
Arbovirus anti repeat: recorded beside Arbovirus anti, whose call it bears; inhibition, %; measured here: 10K subset replicate screen; many hits read low in the repeat;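 first of two repeat runs on a subset; 0% = infected and 100% = uninfected wells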
Starred values were filed as active, the others as inactive; ? = inconclusive; . = not tested or not shown.

SMILES	Mtb betalactam	Mtb H37Rv	RecA splice inh	YopH PTP inh	Arbovirus anti	others
CCOC(=O)Cc1csc(NC(=O)c2sc3nc4ccc(C)cc4cc3c2N)n1	15.6	0.6%	1.4	-26.5	-5.5
Cc1ccc2cc(C#N)c(N3CCCN(C(=S)NCCCN(C)C)CC3)nc2c1	8.0	.	-32.3	.	.
C=CCNc1oc(/C=C/c2ccccc2)nc1C#N	.	8.7%	-22.0	-37.0	3.4
COC(=O)CSc1nc2nc(C)cc(C)n2n1	-6.0	-1.8%	-0.3	-31.6	0.7	Arbovirus anti repeat=-1.1
O=C(Cn1nc(-c2cccc(Cl)c2)ccc1=O)Nc1ccccc1Br	-1.6	9.4%	-4.4	.	-1.6
CC(=O)NC12CC3CC(C1)CC(C(=O)N1CCN(S(=O)(=O)c4ccc(C(C)C)cc4)CC1)(C3)C2	4.6	.	-2.3	.	.
C/C(CCN1CCc2nc(-c3ccccc3)c(-c3ccccc3)cc2C1)=N\O[C@@H](C)c1cn([C@H](CO)Cc2ccccc2)nn1	2.7	.	13.8	-21.3	-40.2
c1ccc2c(c1)nnn2-c1ncnc2sc3c(c12)CCCC3	16.9	-7.2%	0.4	-47.9	-2.6
CC(C)(C)c1ccc(OCCCNCc2ccccc2)cc1	86.7	20.1%	4.4	-1.7	-35.1
COc1ccc(CNC(=O)c2ccc(C)o2)cc1	-5.3	-3.3%	1.4	-23.6	-2.3
CC(C)(C)NC(=O)NC(=O)CSc1ncn[nH]1	3.7	2.3%	-1.2	.	4.2
COc1ccc(Cn2c(=O)[nH]c3cc(C(=O)N4CCN(c5ccccc5)CC4)ccc3c2=O)cc1	6.2	.	-1.2	.	.
C=CCOC(=O)/C(=C\c1ccccc1)NC(=O)c1ccc(C)cc1	48.6	?	1.0	.	-10.5
Cc1cc(C(C)c2ccccc2)c(O)c(CN2CCOCC2)c1C (centres undefined)	6.8	-12.9%	9.8	-20.7	0.4
O=P(N[C@@H](c1ccccc1)[C@@H]1C[C@H]1CO)(c1ccccc1)c1ccccc1	7.8	-6.8%	-1.4	-7.7	-0.5
CC(C)(C)NC(=O)COC(=O)c1cc(S(=O)(=O)N2CCCCC2)ccc1N1CCOCC1	-3.8	-4.7%	0.4	-22.8	-8.6
Cc1cc(C)nc(SCC(=O)n2c3c(c4ccccc42)CCCC3)n1	1.5	5.5%	0.9	-13.5	6.3
CC(C)c1cc(-c2cc(-c3ccc(Cl)cc3)on2)nc(NCC2CC2)n1	69.6	8.1%	-0.6	.	.
COc1ccc2c(c1)c(C(C)=O)c(C)n2C	1.2	5.9%	-1.1	.	.
O=C(COc1cccc2cccnc12)N1CCc2ccccc2C1	-2.9	-0.4%	2.5	-15.4	12.3

Structural class, the entries above containing a thiophene ring, fused or not.
SMILES	Mtb betalactam	Mtb H37Rv	RecA splice inh	YopH PTP inh	Arbovirus anti	others
CCOC(=O)Cc1csc(NC(=O)c2sc3nc4ccc(C)cc4cc3c2N)n1	15.6	0.6%	1.4	-26.5	-5.5
c1ccc2c(c1)nnn2-c1ncnc2sc3c(c12)CCCC3	16.9	-7.2%	0.4	-47.9	-2.6

Going on with the list:
SMILES	Mtb betalactam	Mtb H37Rv	RecA splice inh	YopH PTP inh	Arbovirus anti	others
O=C(O)c1ccc(Cl)c(NCc2cccs2)c1	-7.9	.	-3.2	.	.
COc1cccc(=O)c2c(C)n(-c3ccc(C(=O)O)cc3)c(C)c12	1.5	4.6%	-5.1	.	-1.9
Cc1cccc2cc3c(nc12)-c1ccccc1C3=O	3.6	.	-5.4	.	.
Cc1ccc(-c2csc(NNC(=O)c3ccccc3)n2)cc1	97.1	?	-2.0	-36.8	-29.2
Cc1ccc(C(=O)/C=C/Nc2ccccn2)cc1	-5.3	-3.6%	-3.4	10.6	.
c1ccc(COc2ccc(OCCCn3cncn3)cc2)cc1	5.7	-0.9%	0.3	10.2	1.4
COC(=O)COc1ccc(C)cc1-n1nc2ccccc2n1	76.5	-4.2%	0.9	.	-4.7
O=C(CN1C(=O)NC2NC(=O)NC21)N/N=C/c1ccccc1O (centres undefined)	-3.6	5.3%	-7.3	.	4.2
Cc1ccccc1-n1c(SCC(=O)c2cc(C)n(C)c2C)nnc1-c1ccncc1	-6.5	-1.7%	6.9	-29.2	-1.9
Cc1ccc(N(C(=O)c2csnn2)C(C(=O)NC(C)(C)C)c2cccnc2)cc1C (centres undefined)	1.9	-2.9%	-2.4	.	-4.1
Cc1ccc(CNC(=O)CSc2ccc(-c3cccs3)nn2)cc1	-7.8	7.2%	1.4	-20.9	-6.7
O=C(O)c1cccc(OCc2ccccc2Cl)c1	11.2	-4.3%	-5.3	-11.7	1.4
CCOC(CNC(=O)CCc1c(C)nc2ncnn2c1C)OCC	-4.4	3.8%	1.1	-31.4	2.9
COc1ccc(/C(N)=N/OC(=O)c2ccc(OC)c([N+](=O)[O-])c2)cc1OC	-0.2	5.0%	3.5	.	-6.8
COc1ccccc1-n1c(SCC(=O)NC2CCS(=O)(=O)C2)nc2cc([N+](=O)[O-])ccc21 (centres undefined)	6.7	3.6%	-4.2	-32.5	-5.8
Cc1ccc(NC(=O)CC(C)S(=O)(=O)c2ccc3c(c2)NC(=O)CO3)cc1C (centres undefined)	-3.0	.	0.2	.	.
COc1ccc(-n2cc(-c3ccccc3)c3c(NCCCN4CCOCC4)ncnc32)cc1	51.5	8.8%	0.7	.	-29.2
COc1cccc(NC(=O)C2CCC(CNC(=O)[C@@H]3Cc4ccccc4CN3)CC2)c1 (some centres undefined)	1.0	.	1.3	.	.
O=C(Nc1ncc(Cc2ccccc2)s1)C1CCCO1 (centres undefined)	-1.4	67.1%	-4.8	-20.9	3.1	Arbovirus anti repeat=-4.5
N#Cc1ccc(NC(=O)COC(=O)CSc2nnc(-c3ccc(Cl)cc3)o2)cc1	94.8	?	-1.5	-29.0	-1.5

14 compounds already listed, sorted by SMILES length, low to high.
SMILES	Mtb betalactam	Mtb H37Rv	RecA splice inh	YopH PTP inh	Arbovirus anti	others
O=C(O)c1ccc(Cl)c(NCc2cccs2)c1	-7.9	.	-3.2	.	.
Cc1ccc(C(=O)/C=C/Nc2ccccn2)cc1	-5.3	-3.6%	-3.4	10.6	.
O=C(Nc1ncc(Cc2ccccc2)s1)C1CCCO1 (centres undefined)	-1.4	67.1%	-4.8	-20.9	3.1	Arbovirus anti repeat=-4.5
c1ccc(COc2ccc(OCCCn3cncn3)cc2)cc1	5.7	-0.9%	0.3	10.2	1.4
COC(=O)COc1ccc(C)cc1-n1nc2ccccc2n1	76.5	-4.2%	0.9	.	-4.7
CCOC(CNC(=O)CCc1c(C)nc2ncnn2c1C)OCC	-4.4	3.8%	1.1	-31.4	2.9
Cc1ccc(-c2csc(NNC(=O)c3ccccc3)n2)cc1	97.1	?	-2.0	-36.8	-29.2
COc1cccc(=O)c2c(C)n(-c3ccc(C(=O)O)cc3)c(C)c12	1.5	4.6%	-5.1	.	-1.9
Cc1ccccc1-n1c(SCC(=O)c2cc(C)n(C)c2C)nnc1-c1ccncc1	-6.5	-1.7%	6.9	-29.2	-1.9
N#Cc1ccc(NC(=O)COC(=O)CSc2nnc(-c3ccc(Cl)cc3)o2)cc1	94.8	?	-1.5	-29.0	-1.5
COc1ccc(-n2cc(-c3ccccc3)c3c(NCCCN4CCOCC4)ncnc32)cc1	51.5	8.8%	0.7	.	-29.2
Cc1ccc(N(C(=O)c2csnn2)C(C(=O)NC(C)(C)C)c2cccnc2)cc1C (centres undefined)	1.9	-2.9%	-2.4	.	-4.1
COc1ccc(/C(N)=N/OC(=O)c2ccc(OC)c([N+](=O)[O-])c2)cc1OC	-0.2	5.0%	3.5	.	-6.8
COc1ccccc1-n1c(SCC(=O)NC2CCS(=O)(=O)C2)nc2cc([N+](=O)[O-])ccc21 (centres undefined)	6.7	3.6%	-4.2	-32.5	-5.8

The results go on:
SMILES	Mtb betalactam	Mtb H37Rv	RecA splice inh	YopH PTP inh	Arbovirus anti	others
Cc1ccc(N(C(=O)CNC(=O)c2ccco2)C(C(=O)NC2CCCC2)c2ccncc2)c(C)c1 (centres undefined)	-5.3	.	0.4	.	.
Cc1ccccc1OCc1nc2c3c(ncn2n1)-c1ccccc1CC31CCCC1	2.0	7.5%	-2.2	0.7	11.6
O=C(NCCOc1cccc(Oc2ccccc2)c1)c1cc(-n2cnnc2)ccc1Cl	-11.1	7.5%	4.8	-41.4	-7.9
CCC(C)(C)n1nnnc1C(c1cc2ccc(C)cc2[nH]c1=O)N(Cc1cccnc1)Cc1ccco1 (centres undefined)	13.3	-1.5%	13.8	-37.5	-24.2
CCN(CC(=O)Nc1ccc(OC)cc1)C(=O)c1cc(S(=O)(=O)N(C)C)ccc1N1CCCC1	-8.0	.	3.7	.	.
CCCC1NC(=O)NC(C)=C1C(=O)OCC (centres undefined)	-6.0	2.1%	-2.6	-10.6	-3.5
Cc1cc(C)cc(NC(=O)COc2coc(CN3CCN(c4ccccc4)CC3)cc2=O)c1	44.5	.	0.0	.	.
O=c1[nH]c2c(s1)C=Nc1ccccc1N2	3.4	-8.5%	-8.9	-30.6	4.6	Arbovirus anti repeat=-0.4
Cc1noc(NS(=O)(=O)c2ccc(NC(=O)CSc3nc4ccccc4s3)cc2)c1C	4.0	-3.9%	0.5	7.9	3.1
N#Cc1ccc(CO/N=C/c2ccccc2)cc1	-5.0	7.1%	0.4	.	-1.9
O=[N+]([O-])c1cccc2c(N3CCCC3)ccnc12	-5.1	3.0%	0.0	.	-32.4
CCOC(=O)CCn1cc(F)c(=O)[nH]c1=O	10.4	1.7%	-1.6	.	0.6
N#Cc1c(C#N)c(-c2ccccc2)n(-c2ccccc2)c1N	11.3	-3.6%	2.3	16.1	-5.3
COc1ccc(OCC(=O)NCc2n[nH]c(=O)c3ccccc23)cc1	-11.3	.	-1.4	.	.
COc1ccccc1CN1C[C@@H]2C[C@@H](c3cccc(C)n3)N3CCC[C@@]23C1=O	-6.0	-1.9%	-2.1	.	-1.4
COc1ccc(/C=C(/CC(=O)NCc2ccc(Cl)cc2)c2nc3ccccc3s2)cc1	-1.3	9.5%	-0.4	-18.0	-27.0
COc1cccc(CNC(=O)c2ccc(NC(=O)C3CCCO3)cc2)c1 (centres undefined)	2.8	5.5%	0.9	-33.4	-3.0	Arbovirus anti repeat=3.4
CN1C(=O)/C(=C\c2cc(N=Nc3ccccc3)ccc2O)SC1=S	0.6	.	4.3	-16.8	-37.1
CCc1nnc(NC(=O)c2ccc(S(=O)(=O)N(CC)CC)cc2)s1	-2.5	2.2%	-1.3	-48.6	-0.1	Arbovirus anti repeat=11.3
CCOc1ccccc1NC(=O)C(OC(=O)c1ccccc1)c1ccccc1 (centres undefined)	-5.1	6.1%	21.1	-14.1	-8.6
CCCCn1c(N)c(N(CC(C)C)C(=O)CSc2ccccc2C)c(=O)[nH]c1=O	-7.3	.	1.0	.	.
S=C(N/N=C/c1ccco1)NC1CC2CCC1C2 (centres undefined)	96.8	.	3.7	.	.
CCOC(=O)Cn1c(=O)oc2cc(S(=O)(=O)NCCc3ccc(C)cc3)ccc21	1.9	6.9%	1.9	-27.1	2.7
O=C1C2CCCN2C(c2ccc(Cl)cc2)N1c1ccccn1 (centres undefined)	0.7	-6.3%	-0.8	-37.3	2.4
O=C(NCCc1ccccc1)C1CCC(Cn2c(=O)c3ccccc3n(Cc3cccnc3)c2=O)CC1 (centres undefined)	19.4	9.0%	2.4	0.9	-8.8
Cc1ccc(/C=N/NC(=O)c2cc(C)oc2C)o1	0.5	-8.8%	7.3	-35.1	-4.7
COc1ccc(/C=N/NC(=O)CN(C)S(=O)(=O)c2ccc(NC(C)=O)cc2)cc1	4.4	-3.2%	-1.2	.	8.0
CN1C(=O)C(c2nnc(Nc3cccc4ccccc34)s2)C2CC1(C)Oc1ccccc12 (centres undefined)	-4.9	62.3%	.	-21.1	-13.2

Not all compounds are listed; the hit share may differ from the screen's.
